Source: PubChem BioAssay
gsp antag: gsp mutant antagonism. gsp-mutant cells, cAMP HTRF, 30 min; control for the full effect not named in the record. Potency, µM (doses to about 76.9 µM), for the others: at the highest dose activity change, negative = inhibition, hits mostly inhibitors. 0.4% of 340,000 active; active = falling curve of any shape with a large fitted effect; inconclusive = falling curve, mostly with a smaller effect; inactive = flat or rising curve; cell line not stated here;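 also: intracellular cAMP measured with PDE inhibitor Ro 20-1724 present during compound exposure; potency is read from the fitted curve at half-maximal effect; % is scaled to controls: 0 for no effect and ±100 for the full control effect; nearly all actives have a fitted effect of over 65% in size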
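Cells in G418 medium, seeded 16-24 h, 37C; buffer exchange to DPBS + 1 mM CaCl2, 0.5 mM MgCl2, 0.05% BSA; cpds in DMSO + […] (300 uM stock), 30 min 37C; HTRF cAMP detection.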
Menin MLL FP FL: displaces fluorescein MLL peptide from human menin; FP activity change, % at 61.4 µM; 290,000 tested, under 10 active; AID 1766; Fluorescence polarization, fluorescein-MLL peptide displacement from menin; inconclusive = falling polarisation curve, or a change in total fluorescence; inactive = total fluorescence flat and polarisation flat or rising; no compound was filed as active; the % refers to the polarisation; negative = inhibition;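 also: % of control where 0% means no effect; inhibitors lower the polarisation; unlabelled MLL peptide was the positive control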
PINK1 modulator: changes PINK1 expression; PINK1 immunofluorescence, high-content cytometry, 24 h; Potency, µM (top dose mostly 76.6 µM), inactives show top-dose activation (PINK1 increase), usual class: activators; 0.2% of 410,000 active; AID 624263; active = well fitted activation curve with a large enough effect; inconclusive = small, poorly fitted or top-dose-only effect; inactive = flat fitted curve, though single readings scatter; cell line not stated here;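 also: potency is read from the fitted curve at half-maximal effect; % of control where 0% means no effect; nearly all actives have a fitted effect of over 65% in size; a mitochondrial uncoupler was the plate control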
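Measures PINK1 amount and localization on or inside mitochondria by immunofluorescence. Stable cells get compounds at 5 concentrations for 24 hours before fixation and staining; CCCP controls included.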
Sfp PPTase inh: inhibitors of Bacillus subtilis Sfp phosphopantetheinyl transferase. 3.5% of 310,000 active. Q9F4F7. Biochemical Sfp PPTase activity, qHTS. Potency, µM, for the others: max response, negative = inhibition, most hits filed as inhibitors; active = well fitted inhibition curve with a large enough effect; inconclusive = small, poorly fitted or top-dose-only effect, or another doubt; inactive = no such curve, though single readings can be large or run the other way;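 also: the enzyme is Sfp with the accession as filed and its product quenches rhodamine fluorescence; potency is read from the fitted curve at half-maximal effect; 0% = enzyme reaction without inhibitor and -100% = no enzyme wells; top concentration of the series not given in the record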
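Fluorescence-quenching assay: 15 nM Sfp-PPTase preincubated 15 min at room temperature with compound, then 5 uM rhodamine-CoA and 12.5 uM BHQ-2-labelled YbbR peptide added. Fluorescence (ex 525/em 598 nm) read at start and after 30 min; difference gives rate.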
D2 ag: agonists of human D2 dopamine receptor (beta-arrestin) | P14416 | DiscoveRx PathHunter D2 beta-arrestin, luminescence, 90 min; 100% = 57 uM dopamine signal | activation, % (concentration not given with the values) | 0.084% of 360,000 active | AID 624465; in the data active = activation above about 40%; inconclusive = about 15% to 40%; inactive = below about 15%; also: compound concentration not given in the record; the text of the record calls up to 30% inactive
Target sequence (P14416 whole entry, looked up): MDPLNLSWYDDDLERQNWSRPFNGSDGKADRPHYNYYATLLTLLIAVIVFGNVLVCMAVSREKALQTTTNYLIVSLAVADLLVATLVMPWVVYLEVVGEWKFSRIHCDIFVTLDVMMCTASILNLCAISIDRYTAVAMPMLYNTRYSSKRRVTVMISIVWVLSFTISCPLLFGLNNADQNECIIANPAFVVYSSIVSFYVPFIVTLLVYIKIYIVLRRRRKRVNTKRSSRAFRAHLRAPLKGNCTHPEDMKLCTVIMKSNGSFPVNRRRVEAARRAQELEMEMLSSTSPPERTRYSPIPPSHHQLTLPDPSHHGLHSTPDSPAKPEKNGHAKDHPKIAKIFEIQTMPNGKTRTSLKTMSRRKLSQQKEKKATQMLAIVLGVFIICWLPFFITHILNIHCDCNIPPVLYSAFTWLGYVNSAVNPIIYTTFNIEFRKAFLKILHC
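Agonist mode: compounds alone added to overnight-plated D2 PathHunter cells for 90 min at 37 C, with 57 uM final dopamine (EC100) defining full response. Beta-arrestin recruitment detected by chemiluminescent reagent, read after 1 h at ambient temperature.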
gsp ag: gsp mutant agonism | gsp mutant cells, cAMP HTRF, 30 min; control for the full effect not named in the record | Potency, µM (doses to about 76.9 µM), without a hit: at the top dose activation (cAMP increase), hits mostly activators | 0.13% of 340,000 active; active = well fitted activation curve with a large enough effect; inconclusive = small, poorly fitted or top-dose-only effect, or another doubt; inactive = no such curve, though single readings can be large or run the other way; cell line not stated here;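 also: phosphodiesterase inhibitor Ro 20-1724 added with compounds to block cAMP breakdown; potency is read from the fitted curve at half-maximal effect; nearly all actives have a fitted effect of over 60% in size; about a fifth of the inactives were tested at one dose only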
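Cells stably selected in G418 were plated at 2000/well, grown 16-24 hr, then given compounds in DMSO with the PDE inhibitor […] (300 uM solution added) for 30 min at 37C; cAMP was read by HTRF.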
ClpP mod: qHTS Assay for Activators of ClpP; purified B. subtilis ClpP, FRET peptide cleavage, 20 min; Potency, µM (doses to about 57.5 µM), without a hit: top-dose activity change, negative = active; 1.9% of 340,000 active; active = well fitted falling curve with a large enough effect; inconclusive = small, poorly fitted or top-dose-only effect; inactive = no such curve, though single readings can be large or run the other way; also: potency is read from the fitted curve at half-maximal effect; the source files actives as falling curves though it sought activators and does not explain the sign; nearly all actives have a fitted effect of over 65% in size; many hits overshoot -100%
Target sequence (P80244 whole entry, looked up): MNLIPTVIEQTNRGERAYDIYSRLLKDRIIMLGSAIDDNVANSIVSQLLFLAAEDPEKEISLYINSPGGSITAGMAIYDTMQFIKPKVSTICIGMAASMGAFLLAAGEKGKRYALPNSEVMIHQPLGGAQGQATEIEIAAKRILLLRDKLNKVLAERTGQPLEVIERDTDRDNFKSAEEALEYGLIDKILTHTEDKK
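FRET quenching reversal measured ClpP activation: 10 microg/mL B. subtilis ClpP at pH 8 with the FRET-FV decapeptide, read at 430 nm after 320 nm excitation. The 20-min minus 0-min signal was scaled between DMSO/no-enzyme wells and ADEP (5.8 microM final).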
Starred values were filed as active, the others as inactive; ? = inconclusive; nt = no result given; [ ] = dose if it differs, or a comment.

SMILES	gsp antag	Menin MLL FP FL	PINK1 modulator	Sfp PPTase inh	D2 ag	gsp ag	ClpP mod
O=C(c1cnc2nc3ccccc3n2c1)c1cc(F)ccc1O	-14%	?	1.5%	-9%	-0.6	-32%[15.4 µM]	-0.5%
CN(CC(=O)Nc1ccc(F)cc1)C(=O)CN1C(=O)NC(CCc2ccccc2)C1=O (stereo unspecified)	nt	nt	0.9%	nt	-2.8	37%	0.0%
CN(C)C(=O)CSc1nnc(-c2ccc(S(=O)(=O)N3CCCC3)cc2)n1C	-3%	-6.4	1.7%	9%	-4.0	?	nt
CCOC(=O)CSc1nnc(NC(=O)c2ccco2)s1	1%	-0.2	-0.4%	6%	4.6	-5%	-1.2%
C=CCn1c(CNc2ccccc2)nnc1SCC(=O)N/N=C/c1ccccc1O	-3%	4.2	0.1%	8%	3.0	8%	4.0%
O=C(NCCCN1C(=O)c2ccccc2C1=O)OCc1ccccc1	3%	nt	-0.7%	nt	-0.2	10%[15.4 µM]	-0.6%
Cn1c(N)c(C(=O)COC(=O)CSc2ccc(Cl)cc2)c(=O)n(C)c1=O	-7%	0.5	3.7%	-10%	1.3	1%[15.4 µM]	1.2%
NC(=O)c1cc(Cl)ccc1OCC(=O)N1CCCc2ccccc21	?	2.8	-2.3%	6%	0.8	-3%[15.4 µM]	nt
CCc1nc2c(OCc3ccc(Cl)cc3Cl)cccn2c1N(C=O)Cc1ccc(OC)cc1	nt	nt	14%	nt	0.9	nt	-14%
COc1cccc(NC(=O)CN2C(=O)COc3ccc(S(=O)(=O)N4CCC(C)CC4)cc32)c1	-11%	nt	0.8%	-1%	-4.3	-4%	-0.2%
CCN1CCN(CCc2nc3cc(NC(=O)COc4ccccc4)ccc3n2C)CC1	18%	nt	-0.4%	6%	-4.0	29%	-6.2%
Cc1cc(C)c(NC(=O)CSc2nnc(-c3ccncc3)n2Cc2ccco2)c(Cl)c1	-10%	?	1.4%	20µM*	-0.5	2%	-1.3%
O=C(Nc1c(C(=O)N2CCOCC2)cnn1-c1ccccc1)c1ccc(F)cc1	3%	nt	1.4%	1%	-0.7	-31%[inhibitor]	-1.7%
CC(NC(=O)c1cc(Br)ccc1Cl)c1ccccc1 (stereo unspecified)	-10%	0.3	1.4%	-2%	-0.7	-40%[inhibitor][15.4 µM]	nt
O=c1ccnc(NCCc2ccccc2)[nH]1	0%	-0.8	4.3%	-10%	-2.3	4%	-4.5%
CSCCC(/C(O)=C(\C#N)c1nc2ccccc2[nH]1)N1C(=O)c2ccccc2C1=O (stereo unspecified)	-12%	-2.0	1.1%	25%	-0.9	2%	-3.7%
COc1ccc2nc(SCC(=O)Nc3cc(C)on3)c(C#N)cc2c1	?	nt	2.4%	1%	-1.5	6%	nt
Cc1ccc(OCc2ccc(C(=O)NCc3cccnc3)cc2)cc1C	?	-3.3	-1.0%	-20%	0.5	-9%[15.4 µM]	nt
O=C(C1CCCO1)N1CCN(C(=S)Nc2cccc(F)c2)CC1 (stereo unspecified)	5%	nt	0.5%	2%	-2.2	-8%	-5.4%
CCCCn1c(SCC(=O)NCc2ccccc2)nc2ccc(N3CCOCC3)cc2c1=O	-13%	0.2	11%[38.3 µM]	-29%	2.0	?	-8.5%
O=C(NC1CCCC1)[C@@H]1CSC2c3ccccc3C(=O)N21 (stereo partly specified)	13%	nt	1.6%	5%	-2.4	23%	0.4%
COc1ccc(S(=O)(=O)N2CCN(c3ncccn3)CC2)cc1OC	8%	-17	-1.3%	3%	3.3	-4%[15.4 µM]	-0.3%
N#Cc1ccc(NC(=S)Nc2ccccc2)cc1	14%	7.3	-0.6%	8%	-4.3	9%	0.8%
COc1ccc(-c2cn(-c3ccc(SC(F)F)cc3)c3[n+]2CCC3)cc1OC	5%	-1.0	0.8%	7%	-6.3	-6%[15.4 µM]	-3.7%
COc1ccccc1-c1cc(C(F)(F)F)n2ncc(S(=O)(=O)c3ccccc3)c2n1	-10%	0.6	2.0%	4%	6.5	-18%	28µM*

More compounds follow:
SMILES	gsp antag	Menin MLL FP FL	PINK1 modulator	Sfp PPTase inh	D2 ag	gsp ag	ClpP mod
Cc1ccccc1CS(=O)(=O)CCC(=O)NCc1ccccn1	10%	1.5	1.8%	14%	0.5	-10%	-8.2%
O=C(Nc1ccnn1C1CCN(C(=O)c2cccc(C(F)(F)F)c2)CC1)C1CC1	13%	nt	0.0%	8%	-5.8	0%[15.4 µM]	1.4%
CCCCCc1ccc(S(=O)(=O)NCCc2ccncc2)cc1	-14%	-5.2	6.0%[38.3 µM]	1%	-0.1	-29%	0.6%
Cc1ccccc1NC(=O)CSc1nc(O)cc(=O)n1C	-5%	6.4	2.3%	-5%	-0.6	8%[15.4 µM]	0.4%
NC(=O)CC(NC(=O)c1ccccc1)c1ccc(NCCOc2ccccc2)c([N+](=O)[O-])c1 (stereo unspecified)	-9%	-0.5	18%	0%	-7.6	-24%	0.7%
COc1ccccc1N(CC(O)COc1c(C)cc(C)cc1C)S(=O)(=O)c1ccccc1 (stereo unspecified)	?	0.4	18%	14%	1.2	-39%	0.3%
O=C(CSc1nc(=O)n(CCCN2CCOCC2)c2c1CCCC2)Nc1ccc(F)cc1	4%	nt	-0.3%	nt	-4.1	-1%[15.4 µM]	-0.5%
Cc1cc(C(=O)Nn2cnnc2)ccc1[N+](=O)[O-]	-1%	0.9	0.6%	23%	2.4	-29%	-0.4%
CCC1(COC(=O)Nc2cccc(Cl)c2)COC1	5%	3.5	1.6%	19%	-0.2	-4%	-2.3%
CC[C@@H](C)[C@@H]1CN([C@@H](C)CN2CCC[C@H]2CN2C(N)=NC[C@H]2C(C)C)C(=N)N1CCc1ccc(Cl)c(Cl)c1	3%	nt	0.2%	nt	-4.7	nt	-1.2%
O=C(CCc1c[nH]c2ccccc12)OCc1cccc(C(F)(F)F)c1	7%	nt	7.4%	nt	-3.9	-4%	0.7%
Cc1cc(C)c(OCC(=O)Nc2ccc(NC(=O)c3ccco3)cc2)c([N+](=O)[O-])c1	-5%	2.0	7.7%	6%	-2.3	-14%	32µM*
COC(=O)CSc1nnc(CNC(=O)c2cc(OC)c(OC)c(OC)c2)n1C	-1%	-0.1	8.7%[38.3 µM]	-17%	-1.1	-16%	-1.4%
Cc1ccc(NC(=O)COC(=O)c2ccn(C)n2)cc1	7%	0.2	0.5%[38.3 µM]	2%	-1.8	0%	-0.2%
CCC(C)NC(=O)Nc1ccc(Br)cc1Cl (stereo unspecified)	0%	2.1	3.5%	16%	-0.3	-1%[15.4 µM]	nt
NS(=O)(=O)c1ccc(CCNC(=O)Cc2ccc(S(=O)(=O)N3CCCC3)s2)cc1	-3%	8.7	-0.4%	7%	-0.7	3%[15.4 µM]	nt
CCN(CC)S(=O)(=O)c1ccc(/C=C/C(=O)Nc2ccccc2N2CCOCC2)cc1	-14%	-1.8	2.6%	11%	-0.2	-32%[15.4 µM]	nt
COCC1CCCN(Cc2nc(Cc3ccccc3)no2)C1 (stereo unspecified)	5%	-6.2	-0.2%	7%	4.9	-24%[15.4 µM]	nt
Cc1c(OCc2ccccc2)c(=O)ccn1Cc1ccc(Cl)cc1	6%	1.4	0.0%	-23%	-2.1	0%	-8.9%
N#Cc1c(-c2ccc(Cl)cc2)cc(-c2cccs2)nc1SCC(=O)O	10µM*	15	0.3%	40µM*	-5.0	?	nt
O=C(NCCO)C1CCN(C(=O)c2ccc(-c3ccccc3)cc2)CC1	3%	3.8	-0.2%	8%	-6.1	-28%[15.4 µM]	32µM*
C/C(Cl)=C/CSc1nn2c(=O)c3ccccc3nc2s1	-13%	-2.7	-1.4%	-24%	3.1	2%	-0.7%
Cc1ccccc1NC(=O)NCC1CCCO1 (stereo unspecified)	4%	3.0	-1.1%	2%	-0.2	0%	28µM*
O=C(OCCn1cncn1)c1cc2ccccc2oc1=O	3%	-0.8	1.9%	7%	2.2	-32%[inhibitor]	28µM*
COC(=O)COc1ccc(S(=O)(=O)Nc2ccc3c(c2)OCO3)cc1Cl	-25%	2.2	?	11%	1.6	-32%	-0.6%

Further entries
SMILES	gsp antag	Menin MLL FP FL	PINK1 modulator	Sfp PPTase inh	D2 ag	gsp ag	ClpP mod
C=CCN1CN(CCc2ccccc2)CNC1=S	3%	3.3	0.1%	17%	-3.8	-1%[15.4 µM]	nt
COCCCNC(=O)CC(NS(=O)(=O)c1ccc(F)cc1)c1ccc(OC)cc1 (stereo unspecified)	-1%	1.0	nt	21%	0.8	4%	2.1%
CC(NC(=O)c1ccco1)c1nc(-c2ccc(C(C)(C)C)cc2)no1 (stereo unspecified)	-12%	-2.1	3.9%	13%	-2.2	-7%	nt
NC(=S)c1ccc[n+]([O-])c1	1%	nt	1.6%	nt	-5.2	-3%	-5.8%
O=C(Nc1ccc(OC(F)(F)F)cc1)C1CCCN(S(=O)(=O)c2cnc[nH]2)C1 (stereo unspecified)	-6%	nt	0.3%	3%	3.8	-2%	-1.5%
C[C@@H](C(=O)OCC(=O)Nc1cc(S(=O)(=O)N2CCOCC2)ccc1Cl)N1C(=O)C2CCCCC2C1=O (stereo partly specified)	-9%	3.8	2.2%	-13%	-0.6	5%	1.6%
CCN(CC)CCNC(=O)c1ccc(Sc2ccc(C)cc2)c(NC(C)=O)c1	8%	-0.9	-0.3%	-11%	-7.4	-3%[15.4 µM]	nt
OCc1ccc(O)c2ncccc12	-1%	0.9	?	-1%	-2.5	0%	0.5%
COc1ccccc1C(=O)NCCC(=O)NNC(=O)C1COc2ccccc2O1 (stereo unspecified)	8%	nt	1.9%	nt	-1.6	-6%	-8.0%
O=C(NNC(=S)NC(=O)c1sc2ccccc2c1Cl)c1ccc(Cl)cc1	?	3.2	13%	-13%	-1.2	11%	-1.1%
Cc1ccc(Cn2c(=N)c(C(=O)NCc3ccco3)cc3c(=O)n4ccccc4nc32)cc1	7%	9.5	28%	-27%	-3.1	13%	?

Part of the list above, limited to ClpP mod:
molecule | ClpP mod
Cc1cc(C)c(OCC(=O)Nc2ccc(NC(=O)c3ccco3)cc2)c([N+](=O)[O-])c1 | 32µM*
COC(=O)CSc1nnc(CNC(=O)c2cc(OC)c(OC)c(OC)c2)n1C | -1.4%

An unsorted share of the library, and some 5.1% of all compounds hit somewhere here.
